Screening data deposited in PubChem BioAssay by several laboratories.
XIAP antagonists: XIAP antagonists, biochemical, IAP family, fluorescence polarization (AID 1018) | displacement, % at 20 µM; hits with a dose series show IC50 in µM | E3 ubiquitin-protein ligase XIAP (Homo sapiens) | actives 0.007% (n = 200,000) | XIAP BIR domain, fluorescence polarization peptide displacement; higher % means a stronger effect; in the data active = displacement above about 50%; also: a part of the inactive calls stands beside numbers as strong as those of hits
Insulin prom up: insulin promoter activators in MIN6 cells, imaging, high-content screening, mouse beta cells; MIN6 insulin promoter-GFP reporter; active compounds read high; z-score at 5 µM; actives 0.3% (n = 190,000);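 active = z-score above 3 at 5 µM with at least 500 cells counted in the well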
CSM14.1 death rescue: rescue of cells from ER stress-induced death, primary screen, 384-well, CSM14.1, thapsigargin, ATP luminescence (AID 1222) | CSM14.1 thapsigargin-induced death rescue, ATP luminescence; higher % means a stronger effect | cellular ATP content (survival), % at 20 µM; hits with a dose series show EC50 in µM | 190,000 tested, under 10 active;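 active = EC50 below 50 µM in the dose-response confirmation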;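 also: death triggered by thapsigargin at about 15 µM added after 2 h compound pretreatment; cell ATP read after overnight thapsigargin exposure of roughly 18 to 22 hours; normalized against plate controls of thapsigargin alone and 5% DMSO vehicle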
MT stabilize HCS: microtubule stabilizers in HeLa cells, primary screen, imaging, high-content imaging. AID 2205, 2009. actives 0.83% (n = 200,000). HeLa tubulin immunostaining HCS, 24 h; share of cells brighter than vehicle mean+2SD. % tubulin-high responders, % at 10 µM;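 active = plate Z-score above 3 for both tubulin-high and condensed-nucleus cell shares, with cell loss under 80%, at 10 µM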;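 also: anti alpha tubulin signal scored within the nucleus-defined area of each cell; some results filed as inactive read as strong as hits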
Autophagy mod: autophagy modulators in MEF cells, primary screen, imaging, high-content, MEF GFP-LC3 | calls only at 10 µM (by protocol) | MEF GFP-LC3 puncta imaging; test concentration mostly 10 µM | AID 463193, 2010 | actives 0.98% (n = 190,000);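 active = percentage of spot-positive cells more than 3 SD above its plate mean, without a fluorescence outlier flag or 80% toxicity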;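 also: spot-positive cell cutoff set from DMSO-treated cells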
WT yeast gro inh: growth inhibition of WT strain, primary screen, mitochondrial fusion inhibitor project, WT and mutant strains, chemical genetic. actives 2.1% (n = 190,000). inhibition, % at 10 µM. mitochondrial fusion phenotypic screen; in the data active = inhibition above about 58%; tested in S. cerevisiae
Dynein transport: inhibitors of GR-EGFP nuclear translocation, primary screen, dynein cargo transport inhibitor project, imaging, high-content, 3617.4 mouse cells; test concentration mostly 20 µM; stimulated with dexamethasone, 1 µM; active compounds read low; actives 0.47% (n = 220,000); AID 1381, 2008; z-score, hits read low;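 active = plate z-score of nuclear minus cytoplasmic receptor signal below a set negative limit, without overly bright fluorescence or cell loss, cut at about -3.5 in these data, passing the limit was not always enough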;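 also: z-score of nuclear minus cytoplasmic ring GR-EGFP intensity difference per well; some compounds called inactive have numbers as strong as hits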
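Buffer or medium: tet-free, stripped-serum medium; Also added: dexamethasone, 1.0 µM final; Technique: high-content fluorescence imaging after fixation; Times: 48 h induction, 1 h compound, 30 min dex at 37 °C; Read-out: per-cell GR-EGFP intensity, nucleus versus surrounding cytoplasmic ring, well-averaged.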
WT yeast gro inh mutant strain: recorded beside WT yeast gro inh, whose call it bears; inhibition, %; mitochondrial fusion phenotypic screen, mutant strain inhibition
Dynein transport cytoplasmic EGFP: recorded beside Dynein transport, whose call it bears; z-score; measured here: cytoplasmic GR-EGFP intensity; active compounds read high
Dynein transport nuclear GR-EGFP: also measured in Dynein transport; calls as there; z-score; measured here: nuclear GR-EGFP intensity;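 lower value marks the stronger effect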
Dynein transport cell count: further read-out of Dynein transport, marked with its call; z-score; measured here: cell count per field
Insulin prom up cell count: recorded beside Insulin prom up, whose call it bears; cell count; measured here: cytotoxicity, nuclei count;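 total cells summed across four imaged fields per well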
MT stabilize HCS Hoechst-high %: second read-out of MT stabilize HCS, no call of its own (marks repeat the call); % Hoechst-high responders; measured here: nuclear condensation Hoechst responders;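 share of cells brighter than vehicle mean plus two SD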
MT stabilize HCS cytotoxicity %: second read-out of MT stabilize HCS, no call of its own (marks repeat the call); toxicity, %; measured here: cytotoxicity by cell density;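 0% = mean cell density of plate MIN control wells and 100% = no cells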
Autophagy mod cell loss 18 h: further read-out of Autophagy mod, marked with its call; toxicity, %; measured here: cell loss, nuclei count;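 cell loss after 18 h compound exposure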
* = called active by the depositor. Some of the compounds tested (hit frequency here may not be typical).

COC(=O)c1ccccc1OCC(=O)N1CCN(c2ccc(Cl)cc2)CC1 was read as XIAP antagonists -2.1%, Insulin prom up -0.72, CSM14.1 death rescue 1.8%, MT stabilize HCS 1.5, Autophagy mod inactive, WT yeast gro inh 7, Dynein transport -0.22, WT yeast gro inh mutant strain 6, Dynein transport cytoplasmic EGFP -0.18, Dynein transport nuclear GR-EGFP 0.049, Dynein transport cell count -0.2, Insulin prom up cell count 1640, MT stabilize HCS Hoechst-high % 1.5, MT stabilize HCS cytotoxicity % 6.1 and Autophagy mod cell loss 18 h 5.
CCCN(CCC)CCNC(=O)C1CCCN(S(=O)(=O)c2ccc3c(c2)oc(=O)n3C)C1 (centres undefined) was read as XIAP antagonists -3.3%, Insulin prom up -0.57, CSM14.1 death rescue 1.1%, MT stabilize HCS 3.8, Autophagy mod inactive, WT yeast gro inh -5, Dynein transport -0.41, WT yeast gro inh mutant strain 42, Dynein transport cytoplasmic EGFP -0.1, Dynein transport nuclear GR-EGFP -0.21, Dynein transport cell count 0.54, Insulin prom up cell count 1438, MT stabilize HCS Hoechst-high % 3.3, MT stabilize HCS cytotoxicity % 5.5 and Autophagy mod cell loss 18 h 2.
`CCCN(c1nc(C)cc(OC)n1)S(=O)(=O)c1ccccc1` gave XIAP antagonists -4.3%, Insulin prom up -1.3, CSM14.1 death rescue 3.2%, MT stabilize HCS 3.6, Autophagy mod inactive, WT yeast gro inh 5, Dynein transport -0.023, WT yeast gro inh mutant strain 3, Dynein transport cytoplasmic EGFP -0.26, Dynein transport nuclear GR-EGFP 0.21, Dynein transport cell count -0.49, Insulin prom up cell count 1270, MT stabilize HCS Hoechst-high % 2.4, MT stabilize HCS cytotoxicity % 5.2 and Autophagy mod cell loss 18 h 25.
Screening CCOC(=O)C(/C(N)=N/C(=O)Nc1ccccc1)=C(\C)O returned XIAP antagonists 0.3%, Insulin prom up -0.41, CSM14.1 death rescue -2.2%, MT stabilize HCS 5.0, Autophagy mod inactive, WT yeast gro inh -8, Dynein transport -0.4, WT yeast gro inh mutant strain -4, Dynein transport cytoplasmic EGFP -0.32, Dynein transport nuclear GR-EGFP -0.097, Dynein transport cell count 0.27, Insulin prom up cell count 1594, MT stabilize HCS Hoechst-high % 2.8, MT stabilize HCS cytotoxicity % 4.2 and Autophagy mod cell loss 18 h 2.
`Cc1cc(C)n(CC(=O)N/N=C/c2ccc(C)o2)n1` gave XIAP antagonists -2.5%, Insulin prom up -0.42, CSM14.1 death rescue -0.3%, MT stabilize HCS 1.7, Autophagy mod inactive, WT yeast gro inh -6, Dynein transport -0.31, WT yeast gro inh mutant strain 10, Dynein transport cytoplasmic EGFP -0.12, Dynein transport nuclear GR-EGFP -0.68, Dynein transport cell count 0.075, Insulin prom up cell count 1539, MT stabilize HCS Hoechst-high % 1.4, MT stabilize HCS cytotoxicity % 3.4 and Autophagy mod cell loss 18 h 0.

Two records drawn at random from those above, as already listed:
Screening CCOC(=O)C(/C(N)=N/C(=O)Nc1ccccc1)=C(\C)O returned XIAP antagonists 0.3%, Insulin prom up -0.41, CSM14.1 death rescue -2.2%, MT stabilize HCS 5.0, Autophagy mod inactive, WT yeast gro inh -8, Dynein transport -0.4, WT yeast gro inh mutant strain -4, Dynein transport cytoplasmic EGFP -0.32, Dynein transport nuclear GR-EGFP -0.097, Dynein transport cell count 0.27, Insulin prom up cell count 1594, MT stabilize HCS Hoechst-high % 2.8, MT stabilize HCS cytotoxicity % 4.2 and Autophagy mod cell loss 18 h 2.
CCCN(CCC)CCNC(=O)C1CCCN(S(=O)(=O)c2ccc3c(c2)oc(=O)n3C)C1 (centres undefined) was read as XIAP antagonists -3.3%, Insulin prom up -0.57, CSM14.1 death rescue 1.1%, MT stabilize HCS 3.8, Autophagy mod inactive, WT yeast gro inh -5, Dynein transport -0.41, WT yeast gro inh mutant strain 42, Dynein transport cytoplasmic EGFP -0.1, Dynein transport nuclear GR-EGFP -0.21, Dynein transport cell count 0.54, Insulin prom up cell count 1438, MT stabilize HCS Hoechst-high % 3.3, MT stabilize HCS cytotoxicity % 5.5 and Autophagy mod cell loss 18 h 2.
